VDR inh – vitamin D3 receptor (human) inhibition. P11473. VDR-SRC2-3 peptide fluorescence polarization, 2 h. Potency, µM, without a hit: max response, negative = inhibition, hits mostly inhibitors. actives 0.93% (n = 400,000); active = well fitted inhibition curve with a large enough effect; inconclusive = small, poorly fitted or top-dose-only effect, or another doubt; inactive = no such curve, though single readings can be large or run the other way; note: series mostly up to about 120 µM
Target sequence (P11473 whole entry, looked up): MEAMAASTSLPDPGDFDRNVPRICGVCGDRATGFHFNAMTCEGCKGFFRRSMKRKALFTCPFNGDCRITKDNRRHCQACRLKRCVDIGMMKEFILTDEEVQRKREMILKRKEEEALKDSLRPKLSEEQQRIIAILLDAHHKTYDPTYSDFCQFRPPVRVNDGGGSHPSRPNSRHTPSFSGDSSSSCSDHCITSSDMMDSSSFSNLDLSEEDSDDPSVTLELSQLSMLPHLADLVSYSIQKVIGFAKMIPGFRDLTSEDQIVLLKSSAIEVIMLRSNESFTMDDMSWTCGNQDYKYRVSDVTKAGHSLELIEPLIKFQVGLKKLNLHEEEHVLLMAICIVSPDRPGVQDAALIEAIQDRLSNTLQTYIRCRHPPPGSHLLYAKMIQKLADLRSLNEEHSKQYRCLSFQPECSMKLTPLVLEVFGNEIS
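Signal is fluorescence polarization, reporting how far test compounds block the interaction of VDR with the SRC2-3 coregulator peptide after a 2 h room-temperature incubation.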
The depositor's hits bear a star; ? = inconclusive; & = joins results of further samples. % is set by controls: 0 for no effect and ±100 for the full control effect; potency is the fitted concentration of half-maximal effect. Not all compounds are listed. The share of hits here may be higher or lower than overall.

Compound,VDR inh
CC(=O)CSc1ncnc2sc3c(c12)CCC3,-8%
CC(C)=CC1C(C(=O)NCCc2ccccc2)C1(C)C (stereo not drawn),-17%
COc1ccccc1CNC(=O)C(NS(=O)(=O)c1ccc2c(c1)oc(=O)n2C)C(C)C (stereo not drawn),-16%
CCCCCCCC1=CC2=C(Cl)C(=O)C(C)(OC(C)=O)C(=O)C2=CO1 (stereo not drawn),50µM*
C=CCNC(=S)NCC=C,-22%
Cc1nc(-c2nc(C(=O)NNS(C)(=O)=O)cs2)cs1,0%
CCOC(=O)c1c(C)n(C)c2cc(-c3ccc(C)cc3)c(O)cc12,-17%
COCCn1c(=O)cnc2cnc(OC)nc21,9%
CCOc1ccc(NC(=O)CS(=O)CC(=O)Nc2cccnc2)cc1 (stereo not drawn),-13%
CCCS(=O)(=O)N1CCC(C(=O)NCCCN2CCCC2=O)CC1,4%
CC(=O)OCc1cc(-c2nc3ccccc3[nH]c2=O)nn1-c1ccc(Cl)cc1,8%
CC(C)CC1COC(=O)N1 (stereo not drawn),-12%
C[C@H]1CN([C@@H](C)CO)C(=O)c2cc(NC(=O)Cc3ccccc3)ccc2O[C@H]1CN(C)Cc1ccccc1,22%
COc1ccc(C(=O)NCC(=O)NCC(=O)OCC(=O)C(C)(C)C)cc1,14%
CCOC(=O)c1nnn(CC(=O)N2N=C(c3cccc4ccccc34)CC2c2ccccc2)c1C(=O)OCC (stereo not drawn),1%
CSc1nc2cc3c(cc2n1C(=O)c1ccc(C)cc1)OCCO3,-3%
CCC(C(=O)Nc1cc(OC)cc(OC)c1)n1nc(-c2ccc(C)c(C)c2)ccc1=O (stereo not drawn),10%
CCN1CCN(Cc2nc3cc(NC(=O)c4cc(OC)c(OC)c(OC)c4)ccc3n2CC)CC1,10%
CCOC(=O)c1sc(CS(=O)(=O)c2ccc(Cl)cc2)nc1C,7%
Cc1cc2nc(-c3ccccc3O)[nH]c2cc1C,1%
CC(C)Cn1c(-c2cccc(S(=O)(=O)N3CCOCC3)c2)n[nH]c1=S,-18%
CCN(C(=O)C1CCC(CNS(=O)(=O)c2cccc3nsnc23)CC1)c1cccc(C)c1 (stereo not drawn),-16%
Cc1cccc(NC(=O)Cn2c(=O)n3nc(CCn4nc(C)cc4C)nc3c3ccccc32)c1,-17%
CCN(CC)CCN(Cc1cc2ccc(C)cc2[nH]c1=O)C(=O)NC1CCCCC1,-11%
CCC(C)c1cc([N+](=O)[O-])cc([N+](=O)[O-])c1OC(=O)OC(C)C (stereo not drawn),11µM*
Cn1ncc([N+](=O)[O-])c1C(=O)Nc1cccc2ccccc12,-9%
CCc1ccc(OCC(=O)O/N=C(\N)c2ccccn2)cc1,-16%
CC(=O)c1cccc(NC(=O)NCc2ccc3c(c2)OCO3)c1,14%
CC(C)c1csc(CN2CCN(CCc3ccccc3)C(CCO)C2)n1 (stereo not drawn),-16%
Nc1ccc(/C=C/c2ccc(N)cc2S(=O)(=O)O)c(S(=O)(=O)O)c1,-17%
CC(NCC(O)COc1ccc(S(=O)(=O)N2CCOCC2)cc1)c1ccccc1 (stereo not drawn),6%
Cc1ccnc(NC(=O)c2cccc(S(=O)(=O)Nc3ccc(C)cc3C)c2)c1,5%
O=C1C=C(c2ccc3cc[nH]c3c2)C[C@@H](c2ccc3c(c2)OCO3)C1,?
CCOC(=O)c1cc(-c2ccccc2)sc1NC(=O)CCN1C(=O)c2ccccc2C1=O,-3%
O=S(=O)(NCc1ccco1)c1ccc2c(c1)Cc1ccccc1-2,-20%
CCC(=O)N=c1sc2cc(F)cc(F)c2n1C,-12%
O=C(Cn1c(=O)n(-c2ccc(Cl)cc2)c(=O)c2c3c(sc21)CCC3)c1ccc(F)cc1,-10%
COc1ccc(NC(=O)Nc2ccc(O)c3ccccc23)cc1,?
Cc1[nH]nc2c1C(c1ccccc1)C1=C(CC(C)(C)CC1=O)N2 (stereo not drawn),-3%
CCOC(=O)C(=CNNc1c(C)csc1C(=O)OC)C(=O)OCC,-18%
CC(=O)c1ccc(N2CCN(c3ncnc4c3c(-c3ccccc3)cn4-c3ccc(C)c(Cl)c3)CC2)cc1,2%
Cn1nc(-c2ccc3c(c2)OCCO3)c2ccccc2c1=O,5%
COc1ccc(C(=O)C(C)OC(=O)c2nc3nccc(C)n3n2)cc1 (stereo not drawn),-2%
O=C(c1ccc(F)cc1)N1CCN(C(=O)c2cccnc2)CC1,13%
O=C(O)CC/C(=N/NC(=O)c1ccc(-c2ccccc2)cc1)c1ccccc1,-2%
Cc1cc(=O)[nH]c2nnc(-c3ccc(Br)cc3)n12,-4%
O=C(COC(=O)c1ccc(Cl)nc1)Nc1ccc2c(c1)OCCO2,7%
CC(Oc1ccc(Cl)cc1Cl)C(=O)NCc1ccncc1 (stereo not drawn),3%
Cc1ccc(-c2nnnn2-c2ccccc2C(=O)O)cc1,-13%
C(#Cc1ccccc1)CN1CCCCC1,-9%
Cc1ccc(OCC(=O)NC2CCCC(C)C2C)c([N+](=O)[O-])n1 (stereo not drawn),-11%
COc1ccc(N2CC(NC(=O)c3ccc(S(=O)(=O)N4CCCCC4)cc3)CC2=O)cc1 (stereo not drawn),9%
Cc1ccnc(NS(=O)(=O)c2cnc(Cl)c(Br)c2)c1,15%
COc1cc(S(=O)(=O)N2CCN(C)CC2)c(OC)cc1Cl,-10%
CC(C)c1ccc(C(C)NC(=O)C2CCCC2)cc1 (stereo not drawn),-16%
COc1ccc(NC(=O)COC(=O)Cc2c[nH]c3ccccc23)cc1Cl,14%
Cc1ccc(S(=O)(=O)NCC(=O)OCC(=O)c2ccc(S(=O)(=O)N3CCCCC3)cc2)cc1C,2%
Cc1ccccc1OCC(=O)Nc1ccccc1N1CCC(C)CC1,16%
COc1ccc(CNC(=O)CN(C(=O)c2snc(C(N)=O)c2N)c2ccc(F)cc2)cc1,10%
CCOC(=O)c1c(NC(=O)CSc2nc3ccccc3c(=O)n2-c2ccc(F)cc2)sc(C(C)=O)c1C,3%

Carrying on:
Compound,VDR inh
CO/N=C/NC(=O)NOCc1ccc(Cl)cc1Cl,2%
Cc1ccc(NC(=O)NNC(=O)c2ccccc2)cc1,-3%
Cc1ccc(N2CCN(S(=O)(=O)N3CCCCCC3)CC2)cc1Cl,-11%
CC(=O)c1ccccc1OC(=O)CCN1C(=O)c2ccccc2C1=O,-5%
CCn1c(=O)n(CC(=O)NCc2ccco2)c(=O)c2ccccc21,9%
COc1ccc(-n2c(SCC(=O)NCC3CCCO3)nc3c(c2=O)SCC3)cc1 (stereo not drawn),1%
CSCC[C@H](NC(=O)Nc1ccccc1C)C(=O)O,0%
O=C(Cn1c(=O)n(-c2ccccc2)c(=O)c2sc3ccccc3c21)N1CCCC1,9%
COc1cc(OC)c(C2C(C(=O)Nc3ccc(C)cc3C)=C(C)Nc3ncnn32)cc1OC (stereo not drawn),-6%
Cc1ccc(CNC(=O)Cn2c(=O)oc3ccccc32)o1,19%
COc1ccc(Cl)cc1NC(=O)Nc1c[nH]c(=O)[nH]c1=O,9%
CCCCCn1nc(C(=O)OCC(=O)c2c(N)n(C)c(=O)n(C)c2=O)c2ccccc2c1=O,2%
COCCn1c(=O)c(-c2cccs2)nc2cnc(Oc3ccc(OC)cc3)nc21,-26%
COCCCNC(=O)Cn1c(=O)n(Cc2ccc(C(=O)NCc3ccc(C)cc3)cc2)c(=O)c2ccccc21,-13%
Brc1cccc(-c2cnn3c(-c4ccccc4)cc(-c4ccccc4)nc23)c1,-4%
COc1ccc(/C=C2\CCc3c2nc2ccccc2c3C(=O)O)cc1OC,-11%
Nc1ccccc1N1C(=O)c2cccc3cccc(c23)C1=O,0%
Cc1ccc(NC(=O)C(OC(=O)c2cnc(C)cn2)c2ccccc2)c([N+](=O)[O-])c1 (stereo not drawn),2%
Cc1cc(C(=O)NNC(=O)CN2C(=O)NC(C)(c3ccccc3)C2=O)c(C)o1 (stereo not drawn),-3%
O=c1[nH]c(NNC(=S)NC2CCCCC2)nc2c1C1(CCCC1)Cc1ccccc1-2,3%
CCOc1ccc(CNS(=O)(=O)c2ccc3c(c2)CC(C)N3C(C)=O)cc1OC (stereo not drawn),11%
Cc1ccc(S(=O)(=O)/N=C(/Sc2ccccc2C(=O)O)c2ccccc2)cc1,3%&-17%
CCN(CC)c1ccc(C2C(C(N)=O)=C(C)Nc3nc(SCc4ccccc4)nn32)cc1 (stereo not drawn),-22%
COc1ccccc1OCC(=O)NCC(c1cccs1)N1CCOCC1 (stereo not drawn),?
Cc1ccccc1C(=O)N1CC(=O)Nc2ccc(Cl)cc2C1c1ccccc1 (stereo not drawn),-7%
CCN(CCn1cccn1)C(=O)C1CCC(=O)N(CCc2cccc(F)c2)C1 (stereo not drawn),-9%
CN(C(=O)c1ccccc1C(=O)OCC(=O)c1ccc(Br)cc1)c1ccccc1,-10%
COc1ccccc1CNc1nc(-c2cc(C)n(C)c2C)cs1,24%
CCCCNC(=NCc1cccc(C(F)(F)F)c1)Nc1ccccc1,1%
Cc1cccc(C(=O)/C=C2/c3ccccc3CC(C)(C)N2C)c1,-3%
COCCn1c(=O)c(-c2ccc(Cl)cc2)nc2cnc(Oc3ccc(OC)cc3)nc21,5%
O=c1c2ccccc2cnn1-c1ccc(Cl)cc1,1%
COc1ccccc1CNC(=O)CCCC(=O)n1ncc2cc(C)ccc21,?
CN(C)C(=O)c1sccc1Oc1ccc(F)cc1[N+](=O)[O-],-11%
Cc1cc2c(NC(=O)Nc3ccc(F)cc3)cccc2nn1,25%
COc1ccc(NC(=O)CN2C(=O)CC(c3ccco3)Sc3ccccc32)cc1OC (stereo not drawn),11%
COCC(=O)N1CCC2(CC1)CCN(C(c1ccccc1)c1ccccc1)CC2,1%
Cc1occc1C(=O)Nc1sc2c(c1C(N)=O)CCCCC2,-19%
Cc1ccc(N2C(=NC(=O)c3ccccc3)SC3CS(=O)(=O)CC32)cc1 (stereo not drawn),0%
C[C@]12c3[nH]c4cc(-c5ccco5)ccc4c3CCN1C(=O)[C@@H](CC(=O)NCc1cccc(C(F)(F)F)c1)C[C@@H]2C(=O)N1CCOCC1,?
Nc1c(C(=O)Nc2cccc(F)c2)nnn1-c1cccc(C(F)(F)F)c1,-9%&-2%
COc1cc(C(=O)O)c2ccccc2n1,15%
O=C(Nc1ccc(Cl)cc1Cl)c1ccc2c(c1)OCCO2,-7%
COc1ccc2nc(N3C(=O)CC(Cc4ccc(Cl)cc4)C3=O)sc2c1 (stereo not drawn),-8%
COc1ccc(C2CC(=O)c3cnc(NC(=O)c4ccccc4)nc3C2)c(OC)c1 (stereo not drawn),-7%
COc1ccccc1NC(=O)/C(C#N)=C/c1ccncc1,-29%
C=C(C(=O)c1ccccc1)C(C)C(=C)C(=O)c1ccccc1,79µM*
O=C(NCc1cccc(Br)c1)c1ccc(-n2cnc3cccnc32)cc1,4%
COc1ccc(S(=O)(=O)Nc2ccccc2C(=O)NC(C)(C)C)cc1OC,-1%
O=C(CSc1ncnc2ccccc12)Nc1cc(S(=O)(=O)N2CCCCC2)ccc1Cl,-8%
COc1ccc(Br)cc1CN(C)C(=O)C1=CC=CN2CCS(=O)(=O)N=C12,9%
CCc1ccc(CN(C(=O)c2nc(SC)ncc2Cl)C2CCS(=O)(=O)C2)cc1 (stereo not drawn),17%
COc1cccc(NC(=O)Cn2nnc(C(=O)Nc3cc(Cl)ccc3OC)c2N)c1,-11%
Cc1ccc2nc(-c3ccccc3)cc(C(=O)NCC3CCCO3)c2c1 (stereo not drawn),2%
CCN(CC(=O)Nc1ccc(NC(C)=O)cc1)C(=O)COc1ccc(C(=O)c2ccccc2)cc1,0%
COc1cc(-c2nnc3n(CCc4ccccc4)c(=O)c4ccccc4n23)cc(OC)c1OC,7%
N#Cc1ccc(Cl)cc1NC(=O)CSc1cccc[n+]1[O-],14%
Cc1cc(C)n(-c2cc(-c3ccccc3)nc(C)n2)n1,-10%
COc1ccc(C#Cc2cnc(Cl)c3cncnc23)cc1OC,-13%
COc1ccccc1NC(=O)CCNS(=O)(=O)c1ccc2c(c1)CCCC(=O)N2,-2%

Among those listed so far, these contain fluorine:
Compound,VDR inh
CCC(=O)N=c1sc2cc(F)cc(F)c2n1C,-12%
O=C(Cn1c(=O)n(-c2ccc(Cl)cc2)c(=O)c2c3c(sc21)CCC3)c1ccc(F)cc1,-10%
O=C(c1ccc(F)cc1)N1CCN(C(=O)c2cccnc2)CC1,13%
COc1ccc(CNC(=O)CN(C(=O)c2snc(C(N)=O)c2N)c2ccc(F)cc2)cc1,10%
CCOC(=O)c1c(NC(=O)CSc2nc3ccccc3c(=O)n2-c2ccc(F)cc2)sc(C(C)=O)c1C,3%
CCN(CCn1cccn1)C(=O)C1CCC(=O)N(CCc2cccc(F)c2)C1 (stereo not drawn),-9%
CCCCNC(=NCc1cccc(C(F)(F)F)c1)Nc1ccccc1,1%
CN(C)C(=O)c1sccc1Oc1ccc(F)cc1[N+](=O)[O-],-11%
Cc1cc2c(NC(=O)Nc3ccc(F)cc3)cccc2nn1,25%
C[C@]12c3[nH]c4cc(-c5ccco5)ccc4c3CCN1C(=O)[C@@H](CC(=O)NCc1cccc(C(F)(F)F)c1)C[C@@H]2C(=O)N1CCOCC1,?
Nc1c(C(=O)Nc2cccc(F)c2)nnn1-c1cccc(C(F)(F)F)c1,-9%&-2%
